Vaccinia inh: blocks a specific stage of Vaccinia orthopoxvirus infection, primary screen, cell-based, single point; Vaccinia-infected cells, mCherry/Venus stage reporter fluorescence; active compounds read low; some inactives read as strong as hits; activity change (mCherry), % (test concentration not listed); actives 0.01% (n = 89,000);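 active means mCherry past -33% and 40 or more points under the early reporter, replicates agreeing; inconclusive means past -33% without that gap or agreement; tested in A549 cells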;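 further: scaled between vehicle wells and reference inhibitor wells; 23 nL library stock went into each well; one replicate is shown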
Vaccinia inh Venus: second read-out of Vaccinia inh, no call of its own (marks repeat the call); activity change (Venus), %; measured here: Venus reporter, other viral stage;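 negative = less Venus signal; first of two replicates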
Starred values were filed as active, the others as inactive; ? = inconclusive; · = no result given; & = joins results of further samples. Only part of the results is shown (hit frequency here may not be typical).

SMILES	Vaccinia inh	Vaccinia inh Venus
COc1ccc(S(=O)(=O)Nc2ccc3c(c2)C(=O)N([C@H](C)CO)C[C@@H](C)[C@H](CN(C)S(=O)(=O)c2ccccc2)OCCCC[C@@H](C)O3)cc1	?	·
Cc1ccc(S(=O)(=O)N(C)C[C@H]2Oc3ccc(NC(=O)Nc4ccc(C(F)(F)F)cc4)cc3CC(=O)N([C@@H](C)CO)C[C@@H]2C)cc1	-27	-10
Cc1ccc(S(=O)(=O)N(C)C[C@H]2OCCCC[C@H](C)Oc3ccc(NS(=O)(=O)c4cccs4)cc3C(=O)N([C@H](C)CO)C[C@@H]2C)cc1	?	·
CN(C)C(=O)c1cccc(-c2cccc(-c3nc(C(=O)NC4CCCCC4)cc4c3[C@@H](CCO)N([S@](=O)C(C)(C)C)C4)c2)c1	?	·
C[C@@H]1CN([C@@H](C)CO)C(=O)Cc2cc(NS(=O)(=O)c3ccc(F)cc3)ccc2O[C@H]1CN(C)S(=O)(=O)c1ccc(F)cc1	3	4
Cc1ccc(S(=O)(=O)N(C)C[C@H]2OCCCC[C@H](C)Oc3ccc(NC(=O)CCC(F)(F)F)cc3C(=O)N([C@@H](C)CO)C[C@H]2C)cc1	3	-2
CCCc1cn(CC[C@@H]2CC[C@H](NS(=O)(=O)c3ccccc3Cl)[C@@H](CO)O2)nn1	8	9
C[C@@H]1CN([C@@H](C)CO)C(=O)Cc2cc(NS(=O)(=O)c3cccs3)ccc2O[C@@H]1CN(C)S(=O)(=O)c1ccc(Cl)cc1	5	9
CN(C)C(=O)C[C@@H]1C[C@@H]2c3cc(NC(=O)CC4CC4)ccc3O[C@@H]2[C@H](CO)O1	-12	-7
CCCN(C)C[C@@H]1Oc2cc(-c3cccc(OC)c3)ccc2S(=O)(=O)N([C@@H](C)CO)C[C@@H]1C	-6	-2
CN(C)C(=O)C[C@H]1CC[C@H]2[C@@H](COC[C@H](O)CN2S(=O)(=O)c2ccccc2)O1	10	2
C[C@@H]1CCCCO[C@H](CN(C)C(=O)Nc2ccc(F)cc2)[C@H](C)CN([C@H](C)CO)C(=O)c2cc(NS(=O)(=O)c3cn(C)cn3)ccc2O1	15	9
O=C(CC(F)(F)F)N1C[C@H]2[C@@H](c3ccccc31)[C@H](CO)N2C(=O)Cc1ccccc1	6	11
C[C@H](O)C#Cc1cnc2c(c1)C(=O)N([C@H](C)CO)C[C@@H](C)[C@@H](CN(C)C(=O)Nc1ccc(F)cc1)O2	14	15
C/C=C/c1ccc([C@@H]2[C@H]3CN(Cc4ccc(C)cc4)CC(=O)N3[C@H]2CO)cc1	8	3
CCCNC(=O)Nc1ccc2c(c1)OC[C@H](C)N(C(=O)C1CCC1)C[C@@H](C)[C@@H](OC)CN(C)C2=O	10	7
C=C[C@H](OC)[C@@H](O)c1ccc(OC)c(O)c1	21	15
O=C(C[C@H]1CC[C@@H]2[C@H](COC[C@@H](O)CN2Cc2nccs2)O1)NCc1ccc(-c2ccccc2)cc1	-12	-8
C[C@H](CO)N1C[C@H](C)[C@H](CN(C)C(=O)Nc2ccc(F)cc2)Oc2ncc(C#CCC3CCCC3)cc2C1=O	-18	-24
Cc1ccc(S(=O)(=O)N[C@H]2C=C[C@@H](CC(=O)N3CCc4ccccc4C3)O[C@H]2CO)cc1	-20	-3
O=C(c1ccc(F)cc1)N1[C@H](CO)[C@H]2c3ccccc3NC[C@H]21	21	12
C[C@@H]1CCCCO[C@@H](CN(C)S(=O)(=O)c2ccc(Cl)cc2)[C@@H](C)CN([C@H](C)CO)C(=O)c2cc(NS(=O)(=O)c3cccs3)ccc2O1	10	3
O=C(NCc1nc2ccccc2[nH]1)C1=C[C@H](C2CCCCC2)C[C@H](OCc2ccc(CO)cc2)O1	-12	-3
O=C(Nc1ccccc1F)N1C[C@@H]2[C@H](c3ccccc31)[C@H](CO)N2C(=O)c1ccc(F)cc1	0	1
CCCN(C)C[C@H]1OCCCC[C@@H](C)Oc2ccc(NS(=O)(=O)c3ccc(Cl)cc3)cc2C(=O)N([C@H](C)CO)C[C@@H]1C	-4	7

Next part, starting with the last 6 of the part before.
SMILES	Vaccinia inh	Vaccinia inh Venus
Cc1ccc(S(=O)(=O)N[C@H]2C=C[C@@H](CC(=O)N3CCc4ccccc4C3)O[C@H]2CO)cc1	-20	-3
O=C(c1ccc(F)cc1)N1[C@H](CO)[C@H]2c3ccccc3NC[C@H]21	21	12
C[C@@H]1CCCCO[C@@H](CN(C)S(=O)(=O)c2ccc(Cl)cc2)[C@@H](C)CN([C@H](C)CO)C(=O)c2cc(NS(=O)(=O)c3cccs3)ccc2O1	10	3
O=C(NCc1nc2ccccc2[nH]1)C1=C[C@H](C2CCCCC2)C[C@H](OCc2ccc(CO)cc2)O1	-12	-3
O=C(Nc1ccccc1F)N1C[C@@H]2[C@H](c3ccccc31)[C@H](CO)N2C(=O)c1ccc(F)cc1	0	1
CCCN(C)C[C@H]1OCCCC[C@@H](C)Oc2ccc(NS(=O)(=O)c3ccc(Cl)cc3)cc2C(=O)N([C@H](C)CO)C[C@@H]1C	-4	7
C[C@@H]1CCCCO[C@@H](CN(C)CC2CC2)[C@H](C)CN([C@@H](C)CO)C(=O)c2cc(NS(C)(=O)=O)ccc2O1	21	6
C[C@@H]1CN([C@H](C)CO)S(=O)(=O)c2ccc(Br)cc2O[C@@H]1CN(C)C(=O)CN(C)C	18	18
O=C(c1ccc(F)cc1)N1CC(=O)N2[C@H](CO)[C@@H](c3ccc(C#CC4CCCCC4)cc3)[C@@H]2C1	5	5
O=C([C@@H]1[C@@H](CO)[C@@H]2Cn3c(ccc(C4=CCCC4)c3=O)[C@H]1N2C(=O)c1ccncc1)N1CCOCC1	19	11
COc1ccc(CN(C)C[C@H]2Oc3ccc(NC(=O)Nc4c(C)noc4C)cc3CC(=O)N([C@@H](C)CO)C[C@@H]2C)cc1	13	6
C[C@H]1CN([C@@H](C)CO)C(=O)CCCn2cc(nn2)CO[C@H]1CN(C)Cc1cccc(C(=O)O)c1	14	4
CCCNC(=O)N(C)C[C@@H]1Oc2ncc(C3=CCCC3)cc2C(=O)N([C@@H](C)CO)C[C@@H]1C	3	11
C[C@@H]1CN([C@@H](C)CO)C(=O)c2cc(NC(=O)Nc3ccc(C(F)(F)F)cc3)ccc2O[C@@H]1CN(C)C(=O)Nc1ccc(C(F)(F)F)cc1	?	·
O=C(C[C@H]1CC[C@@H]2[C@H](COC[C@H](O)CN2Cc2nccs2)O1)NCc1ccc(-c2ccccc2)cc1	-19	-16
C[C@H](CO)N1C[C@H](C)[C@@H](CN(C)S(=O)(=O)c2ccccc2)Oc2ncc(C#Cc3ccccc3F)cc2C1=O	?	·
C[C@H](CO)N1C[C@H](C)[C@@H](CN(C)C(=O)C2CC2)OCc2cnnn2CCCC1=O	7&-4	3&3
C[C@H]1CN([C@@H](C)CO)C(=O)CCCn2cc(nn2)CO[C@H]1CN(C)CC1CCCC1	15	12
COCCOC(=O)N1C(=O)[C@@]2(c3cc(C#CCCO)ccc31)[C@H](C(N)=O)[C@H]1C(=O)O[C@H](c3ccccc3)[C@H](c3ccccc3)N1[C@@H]2c1ccc(OCCO)cc1	14	2
CC(=O)N[C@H]1CC[C@H](CC(=O)NCc2ccc(Cl)cc2)O[C@H]1CO	9	12
O=C(C[C@@H]1CC[C@@H]2[C@H](COC[C@@H](O)CN2Cc2cc(F)cc(F)c2)O1)NC1CCCC1	5	1
COCC#Cc1cnc2c(c1)C(=O)N([C@H](C)CO)C[C@H](C)[C@@H](CN(C)C(=O)c1cccc(F)c1)O2	29	19
C[C@@H]1CN([C@@H](C)CO)C(=O)c2cccc(NC(=O)c3nc4ccccc4s3)c2O[C@@H]1CN(C)CC1CC1	-19	-10
C[C@H](CO)N1C[C@H](C)[C@H](CN(C)S(=O)(=O)c2cn(C)cn2)Oc2ncc(C#CC(C)(C)O)cc2C1=O	14	9
O=C(C[C@H]1C=C[C@@H](NC(=O)CCN2CCCCC2)[C@H](CO)O1)Nc1nccs1	16	20
COc1ccc(NC(=O)N(C)C[C@H]2Oc3ccc(NC(=O)Nc4ccc(C(F)(F)F)cc4)cc3CC(=O)N([C@@H](C)CO)C[C@@H]2C)cc1	17	6
O=C(Nc1ccccc1)N1CC(=O)N2[C@H](C1)[C@H](c1ccc(C#Cc3cccnc3)cc1)[C@@H]2CO	-13	-10
CO[C@@H]1CN(C)C(=O)c2ccc(NC(=O)Nc3cccc(Cl)c3)cc2OC[C@@H](C)NC[C@H]1C	?	·
O=C(Nc1ccc2c(c1)[C@H]1C[C@@H](CC(=O)N3CCOCC3)O[C@H](CO)[C@H]1O2)C1CCOCC1	10	1
C[C@H]1CN([C@@H](C)CO)C(=O)c2cc(-c3ccc(F)cc3)cnc2O[C@H]1CN(C)C(=O)Nc1ccccc1F	-6	-6
Cc1noc(C)c1S(=O)(=O)N(C)C[C@@H]1Oc2ccc(NS(=O)(=O)c3cn(C)cn3)cc2CC(=O)N([C@H](C)CO)C[C@@H]1C	10	13

Remaining list, next part:
SMILES	Vaccinia inh	Vaccinia inh Venus
C[C@@H]1CN([C@H](C)CO)C(=O)c2cccc(NC(=O)c3cnccn3)c2O[C@H]1CN(C)C(=O)Nc1ccccc1	-11	-5
O=C(C[C@@H]1CC[C@H](NC(=O)Nc2cc(F)ccc2F)[C@H](CO)O1)NCc1ccccn1	4	8
CC(C)NC(=O)Nc1ccc2c(c1)C(=O)N([C@@H](C)CO)C[C@@H](C)[C@@H](CN(C)Cc1ccc(C(F)(F)F)cc1)O2	3	0
C[C@H]1CN([C@@H](C)CO)C(=O)c2cccc(NC(=O)C3CCCCC3)c2O[C@H]1CN(C)C(=O)Nc1ccc(C(F)(F)F)cc1	-26	-24
Cn1cnc(S(=O)(=O)N2CCCCN3[C@H](CO)[C@@H](c4ccc(C#CC5CC5)cc4)[C@@H]3C2)c1	8	-6
CC=Cc1ccc2n(c1=O)C[C@H]1[C@H](CO)[C@@H](C(=O)NCC(F)(F)F)[C@@H]2N1C(=O)C1CCC1 (mixture of isomers)	26	12
C[C@@H](NC(=O)C[C@@H]1C[C@H]2c3cc(NS(C)(=O)=O)ccc3O[C@H]2[C@@H](CO)O1)c1ccccc1	1	-1
CN1C(=O)c2cc(NS(=O)(=O)c3ccc(Cl)cc3)ccc2OC[C@@H]2O[C@H](CC(=O)O)CC[C@@H]21	12	4
C[C@@H]1CN([C@H](C)CO)C(=O)Cc2cc(NC(=O)C3CC3)ccc2O[C@H]1CN(C)S(=O)(=O)c1cccs1	8	8
Cc1noc(C)c1NC(=O)Nc1ccc2c(c1)C(=O)N([C@@H](C)CO)C[C@H](C)[C@H](CN(C)Cc1ccc(Cl)c(Cl)c1)O2	-13	-11
O=C1O[C@@H](Cc2ccccc2)[C@H]2[C@@H]3C=CCCC=C3CN2C12CCCC2	3	31
CO[C@H]1CN(C)C(=O)c2cc(NC(=O)Nc3c(C)noc3C)ccc2OC[C@@H](C)N(CC2CC2)C[C@H]1C	3	-3
Cc1ccc(S(=O)(=O)N[C@@H]2CC[C@@H](CCn3cc(-c4cccnc4)nn3)O[C@@H]2CO)cc1	9	1
CO[C@H]1CN(C)C(=O)c2cc(NC(=O)Nc3ccc4c(c3)OCO4)ccc2OC[C@@H](C)NC[C@H]1C	15	6
CN1[C@H](CO)[C@H]2c3ccccc3NC[C@H]21	6	6
COc1ccc(NC(=O)N(C)C[C@H]2Oc3cc(C#CCC(C)C)ccc3S(=O)(=O)N([C@@H](C)CO)C[C@H]2C)cc1	?	·
O=C(C[C@H]1C=C[C@@H](NC(=O)c2cccc(F)c2)[C@H](CO)O1)NCCN1CCCC1	0	-1
O=C(C[C@@H]1C[C@@H]2c3cc(NC(=O)c4ccc5c(c4)OCO5)ccc3O[C@@H]2[C@@H](CO)O1)NCc1cc(F)ccc1F	-1	10
C[C@H](CO)N1C[C@H](C)[C@H](CN(C)C(=O)Nc2ccc(C(F)(F)F)cc2)OCCCC[C@H](C)Oc2ccc(NC(=O)c3ccncc3)cc2C1=O	?	·
C[C@@H]1CN([C@H](C)CO)C(=O)c2cc(N(C)C)ccc2O[C@H]1CN(C)C(=O)Nc1ccc(F)cc1	9	0
O=C(Nc1ccccc1F)N[C@@H]1C=C[C@H](CC(=O)N2CCCCC2)O[C@H]1CO	1	13
CCS(=O)(=O)NCC[C@@H]1CC[C@@H](NS(=O)(=O)c2cccc(Cl)c2)[C@@H](CO)O1	11	6
Cc1ccc(S(=O)(=O)N[C@@H]2CC[C@H](CCNC(=O)Cc3ccccn3)O[C@H]2CO)cc1	0	7
COc1ccc2c3c([nH]c2c1)[C@@H](CO)N(C(=O)c1ccncc1)CC31CCN(C)CC1	13	10
O=C(C[C@@H]1C=C[C@@H](NC(=O)c2ccccc2)[C@H](CO)O1)NCCc1ccncc1	-2	7

4 records drawn at random from those above:
SMILES	Vaccinia inh	Vaccinia inh Venus
Cc1ccc(S(=O)(=O)N[C@@H]2CC[C@@H](CCn3cc(-c4cccnc4)nn3)O[C@@H]2CO)cc1	9	1
CCCN(C)C[C@@H]1Oc2cc(-c3cccc(OC)c3)ccc2S(=O)(=O)N([C@@H](C)CO)C[C@@H]1C	-6	-2
C[C@@H]1CN([C@H](C)CO)C(=O)c2cc(N(C)C)ccc2O[C@H]1CN(C)C(=O)Nc1ccc(F)cc1	9	0
C[C@H]1CN([C@@H](C)CO)C(=O)c2cc(-c3ccc(F)cc3)cnc2O[C@H]1CN(C)C(=O)Nc1ccccc1F	-6	-6

Assay outcomes (PubChem BioAssay)
